Assay outcomes (PubChem BioAssay)
HNF4A DNA FP: change in binding of human HNF4 alpha to DNA | P41235 | HNF4a-FITC DNA binding, fluorescence polarization, 1 h | activity change, % at 10 µM | actives 0.3% (n = 360,000); in the data active means activity change above about 30%, passing the limit was not always enough;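 further: controls were the assay level and a saturating level of protein; the project sought stronger binding though the title names inhibitors; some compounds called inactive have numbers as strong as hits; positive values seem to mean higher polarization but the record does not say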
Target sequence (P41235 whole entry, looked up): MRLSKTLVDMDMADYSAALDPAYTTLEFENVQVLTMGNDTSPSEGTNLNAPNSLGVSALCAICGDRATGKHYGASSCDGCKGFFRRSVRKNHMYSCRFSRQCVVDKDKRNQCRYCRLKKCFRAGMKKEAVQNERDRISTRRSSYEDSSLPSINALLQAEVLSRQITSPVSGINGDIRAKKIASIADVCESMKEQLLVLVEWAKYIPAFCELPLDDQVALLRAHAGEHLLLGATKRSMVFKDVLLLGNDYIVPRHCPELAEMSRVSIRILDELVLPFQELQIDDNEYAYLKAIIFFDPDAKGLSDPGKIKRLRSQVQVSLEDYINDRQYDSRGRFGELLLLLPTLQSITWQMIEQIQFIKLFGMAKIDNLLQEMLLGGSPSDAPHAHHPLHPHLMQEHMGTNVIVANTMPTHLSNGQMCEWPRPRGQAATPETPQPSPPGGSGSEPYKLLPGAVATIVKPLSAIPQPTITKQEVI
Ecoli growth: E. coli growth inhibition; Escherichia coli growth, OD600, 23 h; active compounds read low; OD600 absorbance (concentration not given with the values); actives 0.21% (n = 330,000); AID 1053175;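 active means OD600 absorbance below the run mean of sample wells minus 3.6 SD, in any replicate, cut at about 0.56 in these data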;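 further: stock transfer was 300 nL into about 60 µL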
UCH37 inh: human UCH37 deubiquitinating enzyme inhibition | Q9Y5K5 | purified proteasome/UCH37, Ub-AMC cleavage fluorescence | inhibition, % (no concentration beside the values) | actives 0.33% (n = 330,000);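 active means mean of two replicates above 20%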;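 further: 0% = compound-free wells with enzyme and 100% = wells lacking proteasome; stock transfer was 100 nL into about 20 µL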
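Signal – fluorescence, ex 355 nm, em 460 nm · System – Proteasome-bound UCH37 · Input – 0.15 nM proteasome as dispensed · Timing – 30 min preincubation with enzyme, 25 min cleavage at room temperature · Read-out basis – percent inhibition of cleavage signal versus uninhibited and no-proteasome wells · Medium – Tris-HCl pH 7.4 with ATP-MgCl2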
Bfl-1 A1 inh: inhibitors of the anti-apoptotic protein A1, read as caspase activation; MEF A1-2A-BIM cells, Caspase-Glo 3/7 luminescence, 3 h; percent of clofoctol response, vehicle zero; caspase activation, % (concentration not given with the values); actives 0.066% (n = 330,000);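 active means over half of replicate activation scores above 10%, or exactly half above 10 with the replicate mean above 10; inconclusive means replicate mean below 10 yet half the replicates above 10; inactive means over half of replicates below 10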;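 further: wells of about 30 µL received 50 nL stock; many hits fall short of the cut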
Beta2AR agonist: activates human beta-2 adrenergic receptor causing internalization; P07550; actives 0.43% (n = 340,000); response, % (concentration not given with the values); Am2.2-beta2AR cells, FAP receptor internalization, flow cytometry; reference of the scale not given here; AID 504454;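 active means response above a set limit, near 3 SD of response in nonfluorescent compounds, cut at about 42% in these data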;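 further: stock transfer was 100 nL into about 11 µL; a reference agonist was the positive control; negative values mostly stem from fluorescent compounds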
Target sequence (P07550 whole entry, looked up): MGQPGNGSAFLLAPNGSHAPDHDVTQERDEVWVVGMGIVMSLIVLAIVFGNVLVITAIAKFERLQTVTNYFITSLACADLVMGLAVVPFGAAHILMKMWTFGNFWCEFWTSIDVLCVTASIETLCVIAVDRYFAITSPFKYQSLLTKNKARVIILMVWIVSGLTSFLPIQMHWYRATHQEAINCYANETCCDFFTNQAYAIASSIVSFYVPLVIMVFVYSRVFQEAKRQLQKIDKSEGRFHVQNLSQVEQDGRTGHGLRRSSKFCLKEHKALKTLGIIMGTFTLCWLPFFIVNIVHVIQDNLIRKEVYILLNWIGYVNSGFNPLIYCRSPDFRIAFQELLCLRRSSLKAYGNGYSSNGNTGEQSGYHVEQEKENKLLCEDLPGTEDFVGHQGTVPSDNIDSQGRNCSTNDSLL
LANA-H2B inh: blocks KSHV LANA binding to histone H2A/H2B. Q9QR71. inhibition, % (no concentration beside the values). actives 0.6% (n = 320,000). cell-free LANA-H2A/H2B peptide, fluorescence polarization; in the data active means inhibition mostly above about 10%, no sharp cut-off; inactive means mostly below about 6.7%;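 further: stock transfer was 7.5 nL into about 10 µL; 0% = median of vehicle wells and 100% = median of positive control wells; one replicate is shown; the record names a cut of 25% in any replicate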
Vif TR-FRET: inhibitors of Vif binding to APOBEC3G peptide, primary screen, biochemical, TR-FRET, GST-Vif 1-94, biotin-A3G peptide, dose response retest (AID 1117319); one-dose inhibition, %; IC50 in µM for titrated hits; TR-FRET GST-Vif / biotin-A3G peptide binding; higher % means a stronger effect; test concentration not given here; strong numbers were not always called active; actives 0.57% (n = 260,000);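 active means above the screen mean plus three standard deviations and confirmed in dose response; inconclusive means results disagree or hit not tested in dose response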;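 further: Vif residues 1-94 fused to GST binding biotinylated APOBEC3G peptide 110-148; 0% = full assay without inhibitor and 100% = GST in place of GST-Vif; retest series ran down from 100 µM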
* marks the source's active call; other numbers are inactive results; i = inactive; ? = inconclusive; . = not tested or not shown; & = joins results of further samples.

SMILES	HNF4A DNA FP	Ecoli growth	UCH37 inh	Bfl-1 A1 inh	Beta2AR agonist	LANA-H2B inh	Vif TR-FRET
Cc1ccc(C)c(OCC(=O)Nn2c(C)nc3ccccc3c2=O)c1	0.7	0.74	1.9	-0.6	-6	3.4	-6%
CCCOc1ccc(CSCCNC(=S)Nc2ccccc2)cc1	2.2	0.64	2.1	0.4	-7	-0.5	.
CCCCCSc1nnc(-c2ccccc2NC(C)=O)c(=O)[nH]1	-2.5	0.67	2.9	0.2	2	0.8	.
CCOC(=O)CCC(=O)Nc1ccc(S(=O)(=O)N2CCC(C)CC2)cc1	3.1	0.72	4.0	3.1	-5	-4.3	4%
CCN(CC)c1ccc2c(C)cc(=O)oc2c1	-2.0	0.65	-482	0.2	3	8.2	.
CCN(C1CCS(=O)(=O)C1)S(=O)(=O)c1cccs1 (stereo not given)	-0.3	0.64	0.7	0.8	-5	1.9	?
Cc1cc(OC(=O)c2cc(C(F)(F)F)cc(C(F)(F)F)c2)c([N+](=O)[O-])c(=O)[nH]1	-0.8	0.77	11	0.8	2	-0.1	.
Cc1cccc(OCC(=O)N(C)CC(=O)Nc2cccc(F)c2)c1C	-0.2	0.69	1.4	0.0	-1	.	-3%
Cn1c(C(=O)NC2CCCC2)cc2c(=O)n(C)c3ccccc3c21	3.4	0.77	1.5	-0.2	-13	-2.6	-1%
Cc1ccc2c(ccc[n+]2CC(=O)c2ccccc2)c1	-2.7	0.72	-15	0.2	5	-3.6	.
NS(=O)(=O)c1ccc(N2N=C(c3ccccc3)CC2c2ccccc2Br)cc1 (stereo not given)	2.3	0.71	i	.	6	.	1%
COc1ccc(C(=O)NCCCc2nc3ccccc3n2Cc2ccccc2C)cc1OC	-2.6	0.71	2.5	0.5	5	1.3	-6%
O=C(COc1ccccc1)Nc1nc2cc3c(cc2s1)OCCO3	-1.8	0.74	-5.2	-0.2	8	-2.5	1%
COC(=O)c1cc(-c2ccccc2)sc1N	0.9	0.68	0.7	-0.7	5	-2.8	1%
Clc1cc(NC2CCCCC2)ncn1	-0.9	0.65	4.4	-0.6	-3	5.4	-7%
CC(=O)C1=C(O)C(=O)N(Cc2ccccc2)C1c1ccccc1F (stereo not given)	2.0	0.79	9.2	-0.7	-1	-4.1	0%
CCCc1cc(=O)[nH]c(SCC(=O)NC2CCCc3ccccc32)n1 (stereo not given)	0.1	0.68	1.2	1.3	5	1.5	.
CCOc1cc(/C=N/Nc2ccc(C(=O)O)cc2)ccc1OC(=O)c1ccccc1C	-0.1	.	.	0.0	6	3.7	6%
CCOC(=O)c1cc2sccc2n1CC(=O)C(C)(C)C	0.1	0.71	2.0	1.1	2	3.0	2%
O=C(CCCOc1ccc(Cl)cc1Cl)Nc1ccccn1	3.4	0.69	2.6	0.1	-2	-3.6	-6%
O=C(NC1CC1)C1CCN(S(=O)(=O)c2cc([N+](=O)[O-])ccc2Cl)CC1	-33	0.72	2.0	-2.2	-2	-6.5	-2%
O=C(CS(=O)(=O)Cc1ccccc1)Nc1ccc(S(=O)(=O)N2CCOCC2)cc1	-1.6	0.72	1.1	1.0	0	1.2	0%
O=c1/c(=C/c2ccco2)sc2n1CN(c1ccccc1)CN=2	2.1	.	.	0.3	-6	3.1	26%
O=C(Nc1ccc(Cl)cc1C(F)(F)F)c1ccccc1Cl	1.1	0.66	-1.4	-0.1	1	.	9%
O=C(NCc1ccncc1)C(=O)N/N=C/c1cccnc1	-6.2	.	.	-0.4	-2	4.8	.
COc1ccc(/C=N\NC(=S)SCN2C(=O)C3CCC(C)(C2=O)C3(C)C)cc1 (stereo not given)	-1.3	.	.	0.6	5	5.9	9%
CC[n+]1c(C)sc2sc3ccccc3c21	.	.	.	-0.9	.	-0.8	29%
Nc1ccc(O)c2c1C(=O)c1ccccc1C2=O	-70	.	.	0.0	0	-1.0	?
CC(=O)N(Cc1c(C)nn(-c2ccccc2)c1Cl)c1ccc(Cl)cc1	1.7	0.67	1.0	0.7	-2	-2.1	20%
CCOc1ccc2c(=O)c(Oc3ccccc3)c(C)oc2c1	2.3	0.68	0.3	-0.4	2	-0.4	-6%
O=C(Cc1coc2cc3c(cc12)CCC3)OCc1cc(=O)n2c(n1)sc1ccccc12	-0.5	0.73	-14	0.2	-2	2.7	9%
Cc1cc(=O)[nH]c(SCc2nc3ncccn3c2Br)n1	3.0	0.72	-300	1.2	-7	0.0	-3%
CC1CCCN(S(=O)(=O)c2ccc(N(C(=O)c3cnccn3)C(C(=O)NC3CCCCC3)c3cccs3)cc2)C1 (stereo not given)	-0.7	0.71	1.9	0.1	2	2.4	.
COc1ccccc1C(=O)NCCN1CCN(c2ccccc2)CC1	-1.1	0.64	2.0	-0.7	0	-1.7	.
COc1ccccc1C(C)NC(=O)c1cc(S(=O)(=O)N2CCCCC2)ccc1C (stereo not given)	0.4	0.66	-0.2	1.3	0	-1.2	-12%
COc1cc(OC)c2c(-c3ccccc3)cc(=O)oc2c1C(CCN1CCOCC1)c1ccc2c(c1)OCO2 (stereo not given)	-2.1	0.68	-4.7	.	10	.	0%
CCOc1ccc(NC(=O)NCCCCc2ccccc2)cc1	-2.6	0.71	0.3	0.5	0	1.7	-9%
COc1ccccc1NC(=O)c1cc(S(=O)(=O)NC2CCCC2)ccc1F	0.8	0.64	0.6	-0.2	2	2.1	.
COCCCNC(=O)c1ccc(-n2nc(C(F)(F)F)cc2-c2cccs2)cc1	0.0	0.7	3.0	-0.1	6	4.0	21%
COCCN(C(=O)C1CC1)c1nnc(-c2cccc(C)c2)s1	-1.4	0.7	0.7	2.4	-9	1.4	1%
CC(C)OCCCNc1ncnc2c1nc1n2CCCC1	1.8	0.69	-4.6	0.7	-11	-1.9	-6%
CCOC(=O)Cc1csc(SCC(=O)Nc2cccc(C#N)c2)n1	3.7	0.68	3.0	0.4	8	1.5	-10%
O=C(CCS(=O)(=O)c1cccc2nonc12)N1CCCc2ccccc21	3.4	0.68	2.5	2.8	1	-0.8	?
Cn1c(Cc2ccccc2)nnc1SCC(=O)Nc1ccccc1N1CCOCC1	-0.5	0.69	2.9	-0.9	-3	1.6	3%
C=CC[C@H](CC(=O)N(CCO)Cc1ccccc1)C(=O)N[C@@H](COC(=O)[C@@H](CC=C)CC(=O)OC(C)(C)C)Cc1c[nH]c2ccccc12	-0.9	.	5.9	-0.9	19	-13	.
O=C(CCc1ccccc1Cl)Nc1cccc(S(=O)(=O)N2CCCC2)c1	5.0	0.67	0.5	1.2	4	-2.2	4%
COc1ccccc1-c1nnc(NC(=O)C(C)SC2=NCCS2)s1 (stereo not given)	4.0	0.78	2.5	-0.2	27	-7.7	-16%
O=C(NCCS(=O)(=O)N1CCN(c2ccccc2F)CC1)c1ccc(F)c(F)c1	2.9	0.72	0.9	-0.4	1	-3.1	-3%
Cc1nn(-c2ccccc2)c(Cl)c1C(=O)N1CCN(C)CC1	1.8	0.68	3.1	-1.3	0	-4.5	0%
CN1CCN(c2nc3c(c(=O)n(C)c(=O)n3C)n2Cc2ccccc2Cl)CC1	-4.0	0.72	5.3	-0.6	-10	0.1	.
COc1cc(/C=N/NS(=O)(=O)c2ccc(Br)cc2)ccc1O	-1.2	.	.	-0.1	-1	4.5	-1%
CCOC(=O)c1c(CN2CCCCC2)oc2ccc(OC)cc12	0.1&0.8	0.73&0.71	-7.1&-6.3	0.3&-0.3	-10&-3	-6.1&3.1	-3%&-2%
COCCn1c(SC(C(=O)Nc2cc(C)ccc2OC)c2ccccc2)nnc1-c1ccc(Cl)cc1 (stereo not given)	-2.4	0.69	1.6	0.3	-3	0.6	28%
NS(=O)(=O)c1ccc(C(=O)O)cc1	-1.3	0.7	2.6	-1.0	-8	0.7	?
Cc1cccc(NC(=O)COc2ccc(Br)cc2C)n1	2.4	0.79	1.0	-7.0	-6	-0.5	3%
Cc1ccc(NS(=O)(=O)c2ccc(C)c(C(=O)N3CCOCC3)c2)cc1	1.0	0.7	2.8	-1.0	3	-2.2	.
CNc1nc(NC)nc(-n2c(C(F)(F)F)nc3ccccc32)n1	-0.4	0.71	4.8	-1.2	-12	-1.2	-6%
O=S(=O)(NCc1ccccc1)c1cccc(S(=O)(=O)N2CCOCC2)c1	1.0	0.69	1.3	0.1	2	1.2	4%
C=CCn1c(-c2cccnc2Cl)nc2ccccc21	2.5	0.68	5.4	-0.2	-7	-2.8	-6%
COc1ccc(-c2c(-c3cc(OC)cc(OC)c3)n(C)c3ccc(-c4ccc(S(N)(=O)=O)cc4)cc23)cc1	-6.8	0.81	-0.5	-0.3	13	-1.3	.

2 entries picked at random from those above:
SMILES	HNF4A DNA FP	Ecoli growth	UCH37 inh	Bfl-1 A1 inh	Beta2AR agonist	LANA-H2B inh	Vif TR-FRET
CCOC(=O)CCC(=O)Nc1ccc(S(=O)(=O)N2CCC(C)CC2)cc1	3.1	0.72	4.0	3.1	-5	-4.3	4%
CC(=O)N(Cc1c(C)nn(-c2ccccc2)c1Cl)c1ccc(Cl)cc1	1.7	0.67	1.0	0.7	-2	-2.1	20%

Other records:
SMILES	HNF4A DNA FP	Ecoli growth	UCH37 inh	Bfl-1 A1 inh	Beta2AR agonist	LANA-H2B inh	Vif TR-FRET
COc1ccc(N2CCN(C3CCCN(Cc4ccccc4OCCO)C3)CC2)cc1 (stereo not given)	1.4	0.69	4.7	-1.3	3	0.7	.
CC(C)c1ccc(Nc2nnc(SCC(=O)NCC3CCCO3)s2)cc1 (stereo not given)	-3.4	0.68	15	-2.9	-15	4.4	0%
CCCOc1ccc(NC(=O)C2CC(=O)N(C)C(=Nc3cccc(OC)c3)S2)cc1 (stereo not given)	-4.0	0.72	1.9	0.2	-6	2.2	.
O=C1CSC(=S)N1Cc1cccnc1	17	0.61	2.7	0.8	7	2.9	10%
COc1ccccc1C(=O)Nc1ccc(S(=O)(=O)N2CCCC2)cc1	0.0	0.74	4.0	-0.6	-2	5.2	-4%
CCCC(=O)c1ccc(N2CCN(C(=O)c3cccs3)CC2)c(F)c1	-0.8	0.66	1.5	0.1	-2	-2.9	5%
CC1CN(C(=O)C2CCCN2S(=O)(=O)c2ccc(Cl)cc2)CC(C)O1 (stereo not given)	2.6	0.67	1.4	0.1	0	2.2	-3%
N[C@@H](CO)c1cn([C@@H](Cc2cc3ccccc3[nH]2)C(=O)N2CCNCC2)nn1	4.2	.	3.7	-1.5	2	-3.4	3%
O=C(Nc1ccccc1)C1CCN(S(=O)(=O)c2ccc3c(c2)OCCO3)CC1	1.3	0.71	1.2	0.5	3	4.0	4%
CCCCS(=O)(=O)NC1=NCN(CCOC(=O)c2ccccc2)CN1	-0.3	0.71	1.8	-0.6	1	-0.6	2%
COc1ccccc1C(c1nnnn1Cc1ccco1)N1CCN(c2cccc(C)c2C)CC1 (stereo not given)	2.1	0.7	0.8	-0.2	12	-2.3	26%
O=C(CN1CCC(n2nnc3cc(C(F)(F)F)ccc32)CC1)NNC(=O)c1ccco1	-1.5	0.74	1.1	0.5	-1	0.8	.
CCOc1ccc(NC(=O)CN2CCN(CC(=O)Nc3ccc(C(=O)OC)cc3)CC2)cc1	5.5	0.76	1.5	0.1	-3	-0.5	-4%
C=C1c2cccc(C(F)(F)F)c2O[C@H](C(=O)OCC)[C@H]1OC	-2.0	0.72	2.2	.	7	.	2%
O=c1oc(Nc2ccc(F)cc2)nc2ccccc12	0.2	0.67	1.3	-6.6	3	3.0	1%

Individual results from the entries so far:
For LANA-H2B inh, CCCCS(=O)(=O)NC1=NCN(CCOC(=O)c2ccccc2)CN1 has -0.6
For Vif TR-FRET, CCCC(=O)c1ccc(N2CCN(C(=O)c3cccs3)CC2)c(F)c1 has 5%
For Bfl-1 A1 inh, O=C(Nc1ccccc1)C1CCN(S(=O)(=O)c2ccc3c(c2)OCCO3)CC1 has 0.5
